PKD1 kinase inh – inhibitors of human PKD1 kinase, biochemical, fluorescence polarization. PKD1 kinase fluorescence polarization assay. inhibition, %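 (about 10 µM by stock and volumes)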. Serine/threonine-protein kinase D1 (Homo sapiens), Q15139. 200,000 compounds, 0.056% hits;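 active means inhibition of 50% or more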;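 further: controls were vehicle for no effect and a reference inhibitor for full effect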
INS promoter inh – inhibitors of insulin promoter-driven GFP, primary screen, imaging, TRM-6 cells (human fetal islet line), eGFP reporter, cell count; 130,000 compounds, 0.9% hits; inhibition, % at 2 µM; reporter expression induced with tamoxifen; AID 1273, 2008;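 active means inhibition above the mean plus 3 SD, with well images judged a real hit on visual review, cut at about 60% in these data, passing the limit was not always enough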
HSV augment – enhancers of HSV replication in host cells, fold increase, host cell viability; HSV replication augmentation in cells; maximum fold increase; 220,000 compounds, 0.005% hits;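 active means peak rise of 1.5-fold or more in the series; tested in PC3 cells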;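 further: first round at 10 µM; read as green reporter fluorescence; hits show the peak of a series up to 25 µM; 1 = signal of infected wells without compound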
GALR2 agonist – GALR2 receptor agonists, primary screen, cell-based; Galanin receptor type 2 (Homo sapiens), O43603; GALR2-expressing cells, agonist activation read-out; activation, %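 (tested at 5 µM)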; 140,000 compounds, 0.48% hits;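 active means above mean plus 3 SD of all compounds, about 5% in these data, not always enough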;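 further: 0% = vehicle buffer wells and 100% = reference agonist at full effect; tested in CHO reporter cells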
Target sequence (O43603 whole entry, looked up): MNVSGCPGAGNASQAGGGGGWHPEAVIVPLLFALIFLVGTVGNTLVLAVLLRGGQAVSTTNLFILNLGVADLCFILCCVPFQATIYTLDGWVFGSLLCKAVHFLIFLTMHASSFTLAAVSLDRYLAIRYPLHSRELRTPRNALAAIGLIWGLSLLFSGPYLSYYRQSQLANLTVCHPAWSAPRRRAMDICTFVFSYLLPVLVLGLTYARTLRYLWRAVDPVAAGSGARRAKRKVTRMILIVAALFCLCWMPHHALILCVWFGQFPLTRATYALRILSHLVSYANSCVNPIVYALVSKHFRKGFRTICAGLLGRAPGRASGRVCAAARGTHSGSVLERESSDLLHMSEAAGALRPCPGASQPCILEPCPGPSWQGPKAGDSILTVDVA
RGS16-Gao – modulators of RGS16 binding to Galphao, primary screen, biochemical, human proteins, multiplexed bead flow cytometry | binding response (% of control), % at 10 µM | bead-based flow cytometry RGS16-Galphao binding, fluorescence; actives lie on both sides | 220,000 compounds, 0.38% hits | Regulator of G-protein signaling 16 (Homo sapiens) + Guanine nucleotide-binding protein …;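 active means below 25% or above 175%, edge rows of some plates excepted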;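 further: Galphao activated by GDP with aluminum fluoride before binding; 100% = wells without compound and 0% = beads without RGS; some results beyond the cut were filed as inactive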
Target sequence (O15492 whole entry, looked up): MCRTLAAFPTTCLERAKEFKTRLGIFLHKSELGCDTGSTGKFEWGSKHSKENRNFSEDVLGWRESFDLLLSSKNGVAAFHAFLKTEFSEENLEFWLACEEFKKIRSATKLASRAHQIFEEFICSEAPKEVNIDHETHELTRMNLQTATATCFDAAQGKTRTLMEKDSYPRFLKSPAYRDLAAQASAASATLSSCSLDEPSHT
Target sequence (P09471 whole entry, looked up): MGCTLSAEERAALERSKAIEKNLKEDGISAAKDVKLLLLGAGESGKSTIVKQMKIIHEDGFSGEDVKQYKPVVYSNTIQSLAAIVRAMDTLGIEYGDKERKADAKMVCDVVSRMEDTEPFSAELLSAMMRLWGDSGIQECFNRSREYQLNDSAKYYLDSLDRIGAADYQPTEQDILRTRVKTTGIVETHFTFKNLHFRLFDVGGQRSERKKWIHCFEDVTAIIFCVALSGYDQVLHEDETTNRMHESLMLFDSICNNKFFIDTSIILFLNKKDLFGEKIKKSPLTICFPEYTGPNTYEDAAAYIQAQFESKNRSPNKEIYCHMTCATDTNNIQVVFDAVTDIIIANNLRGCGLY
INS promoter inh cell count – further read-out of INS promoter inh, marked with its call; normalized cell count, %; measured here: cell count, toxicity; reference of the scale not given here;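 cells exposed to compound for 48 h; stained nuclei by imaging scaled within each plate; lower means fewer cells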
HSV augment primary fold – recorded beside HSV augment, whose call it bears; fold increase; compound at 10 µM; measured here: primary screen fold increase 10 uM; tested in PC3 cells;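 GFP signal in the first replicate; 1 = infected wells without compound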
An asterisk follows results filed as active; i = inactive; . = not tested or not shown.

SMILES	PKD1 kinase inh	INS promoter inh	INS promoter inh cell count	HSV augment	HSV augment primary fold	GALR2 agonist	RGS16-Gao
O=[N+]([O-])c1ccc2c(c1)C=C1CCCCC1(N1CCCC1)O2 (stereo not drawn)	-6	34	121	i	0.93	-1.9	108
CC1=C(n2nnc([N+](=O)[O-])n2)C(c2cccnc2)C(C#N)=C(N)O1 (stereo not drawn)	-14	-38	81	i	0.93	-0.8	107
COc1ccc(NC(=S)NCCSc2ccc(C)cc2)c(OC)c1	-6	16	105	i	0.66	-1.7	.
CC(=O)N1CCC(=NNc2nc3ccccc3s2)CC1	3	-14	107	i	0.98	.	101
O=C(NC1CCCCCC1)C1CCN(c2nc3ccccc3o2)CC1	1	.	.	.	.	-3.8	60
CCOC(=O)CC1C(=O)NCCN1S(=O)(=O)c1ccc(Cl)cc1Cl (stereo not drawn)	-2	30	112	i	0.94	-0.3	99
Cc1ccc(NC(=O)CSc2ncccn2)c([N+](=O)[O-])c1	1	0	72	i	1	.	78
CCOC(=O)c1nc(C)nc(Sc2n[nH]c(-c3cc(Cl)cc(Cl)c3)n2)c1C	.	.	.	i	1	.	98
CC(C)(C)NC(=O)NC(=O)CN1CCN(c2ncc(C(F)(F)F)cc2Cl)CC1	3	68*	101*	i	1	-0.7	.
CCOC(=O)N1CCN=C1SCc1ccc(C(F)(F)F)cc1	-1	3	104	i	0.97	.	108
COc1ccc(C(=O)N2CCC(C(=O)Nc3ccc(C)cc3)CC2)cc1	-1	.	.	i	1	.	105
Cc1cc(NC(=O)c2nn(C)c(C)c2[N+](=O)[O-])no1	-5	-3	63	i	0.88	-1.0	106
CC(C)Oc1ccc(CNCC2(O)CCOC(C)(C)C2)cc1 (stereo not drawn)	4	53	78	i	1	-2.2	175
O=C1c2ccccc2CN1CCSC(=S)N1CCSCC1	-9	43	122	.	.	.	103
CS(=O)(=O)N(CC(=O)Nc1ccccc1-c1ccccc1)c1ccc(F)cc1	1	.	.	i	1.5	.	96
COc1cccc(C(C(=O)NC(C)(C)C)N(Cc2ccco2)C(=O)CCC(=O)Nc2cc(C)on2)c1OC (stereo not drawn)	-7	.	.	i	1	.	75
O=C(c1ccc2c3n(nc2c1)-c1ccc(Cl)cc1CO3)N1CCCCC1	.	.	.	i	0.8	.	104
O=C(Cn1nnc(-c2ccccc2NC(=O)c2ccco2)n1)Nc1ccccc1	-15	.	.	i	0.71	-1.0	100
CCC(=O)Nc1ccc(C(=O)Nc2ccc(OC)cc2[N+](=O)[O-])cc1	-15	.	.	i	0.95	0.9	103
Cc1ccc(NC(=O)c2ccccc2-c2ccc(C(F)(F)F)cc2)cc1S(=O)(=O)N1CCOCC1	6	-19	110	i	0.83	-0.8	33
COc1ccc(NC(=O)c2ccc(C)o2)c([N+](=O)[O-])c1	-5	-36	118	i	0.93	0.4	112
CCOc1ccc(C(=O)O)cn1	6	.	.	i	0.96	.	101
CC1(C)OC(c2ccccc2)=C/C(=C\C=N\NC(=O)c2ccncc2)O1	.	.	.	i	0.88	.	105
Cc1cccc(OCC(=O)NCC(=O)N/N=C/c2ccc(O)cc2O)c1	.	.	.	i	0.86	.	89
CC1CC1c1ccc(/C=C(\C#N)C(=O)Nc2cc(Cl)ccc2Cl)o1 (stereo not drawn)	0	-19	82	i	2.1	2.1	110
SMILES	PKD1 kinase inh	INS promoter inh	INS promoter inh cell count	HSV augment	HSV augment primary fold	GALR2 agonist	RGS16-Gao
Cc1cccc(-n2cc(CN3CCN(c4ccccn4)CC3)c(-c3cccc(F)c3)n2)c1	2	.	.	i	0.85	.	108
CN1C(=O)/C(=C\c2cc(Br)cs2)c2ccccc21	-9	-8	40	i	0.96	.	113
O=C1N/C(=C/c2cccn2-c2ccccc2)C(=O)N1Cc1ccc(F)cc1	9	.	.	i	0.82	3.4	106
O=C(O)C1C2CCC(O2)C1C(=O)Nc1cnn(Cc2ccccc2)c1 (stereo not drawn)	7	.	.	i	1	-1.3	103
N#Cc1c(N)n(CCOC(=O)c2cccc(Br)c2)c2nc3ccccc3nc12	-3	7	50	i	0.99	7.1	102
COc1ccc(C(=O)Nc2cc(=O)n(C)c(=O)n2C)cc1OC	2	14	168	i	0.9	-1.9	104
O=[N+]([O-])c1ccc(NC(=S)NCCc2ccc(Cl)cc2)cc1	1	40	90	i	0.65	-0.5	87
Cc1ccc(NC(=O)Cn2c(=O)c(C)nc3ccccc32)cc1	6	-53	98	i	1.1	.	103
Cn1c(=O)cc(SCC(=O)N2CCN(c3ccccc3)CC2)c2ccccc21	6	85*	105*	i	1	-1.9	98
O=C(NCc1ccco1)C1CCN(c2nc3ccccc3n2Cc2ccc(F)cc2)CC1	-8	.	.	i	1	-0.7	99
CC(=O)C1=C(C)OC(N)=C(C#N)C1c1cc2cccc(C)c2nc1Cl (stereo not drawn)	-3	.	.	i	1.2	-3.4	97
COCCCNCCCCOc1ccccc1-c1ccccc1	-8	-24	120	i	0.83	1.1	99
Cc1ccc(S(=O)(=O)N2CC(=O)Nc3ccccc32)cc1C	-6	29	65	i	0.89	-0.7	97
CCCCN(CC)C(=S)Nc1ccc2nc(N3CCN(C)CC3)cc(C)c2c1	-4	.	.	i	0.78	.	106
CCOC(=O)C1=C(C)NC(=O)NC1c1ccc(C)o1 (stereo not drawn)	-6	.	.	i	0.96	-2.2	106
Cc1c(C(=O)N2CCOCC2)sc(NC(=O)Cc2ccccc2)c1C#N	2	.	.	i	0.93	.	98
O=C(c1ccc(COc2ccccc2Br)o1)N1CCN(c2ccccn2)CC1	-6	-3	113	i	0.77	-0.7	109
COc1ccc([N+](=O)[O-])cc1NC(=O)CN(C)S(=O)(=O)c1ccccc1	-12	11	101	i	0.96	.	100
CCOC(=O)c1c(NC(=O)c2c(C)noc2C)sc2c1CCCCC2	-6	33	107	i	0.98	-1.7	101
Cc1cc(C(=O)Cn2nnc3ccccc3c2=O)c(C)n1-c1ccccc1F	-7	10	103	i	0.91	-2.3	100
COc1ccc(C)cc1NC(=O)COC(=O)c1c(C)noc1C	-9	62	103	i	0.92	-1.5	98
O=C(NCc1ccc2c(c1)OCO2)C1CC(=O)N(C2CCCCCCC2)C1 (stereo not drawn)	-12	-3	101	i	1	0.5	99
CCOCCn1c(SCc2cccc(C)c2)nc2c1c(=O)[nH]c(=O)n2C	-4	.	.	i	0.74	-3.5	77
CCc1ccccc1NC1c2ccccc2C(=O)N1Cc1ccco1 (stereo not drawn)	0	-100	72	i	0.87	-0.9	97
NS(=O)(=O)c1ccc(NC(=O)COC(=O)c2cc3ccccc3cc2O)cc1	.	.	.	i	0.93	.	102
SMILES	PKD1 kinase inh	INS promoter inh	INS promoter inh cell count	HSV augment	HSV augment primary fold	GALR2 agonist	RGS16-Gao
COc1ccc(-c2csc3ncnc(Cl)c23)cc1	2	.	.	i	0.93	.	102
COc1ccc(C(=O)OCCN=C2NS(=O)(=O)c3ccccc32)cc1OC	-10	0	109	i	0.9	-1.5	96
Cn1c(=O)c2c(ncn2CC(=O)N/N=C/C(Cl)=C/c2ccccc2)n(C)c1=O	16	20	92	i	0.94	-0.8	103
CCCc1nc2ccccc2c(=O)n1/N=C/c1ccc(O)cc1O	-8	.	.	i	0.96	-0.8	100
Cc1ccc(C(=O)NCCc2ccc(S(N)(=O)=O)cc2)o1	-3	0	140	i	0.98	.	98
Cc1ccc(NC(=O)CC2SC(=NCC3CCCO3)NC2=O)cc1Cl (stereo not drawn)	1	-39	108	i	1.1	0.3	102
CCOC(=O)c1sc2nc3c(SCCC#N)cc(C(=O)c4cc(F)ccc4O)cn3c(=O)c2c1C	-3	-6	139	i	1.1	-1.1	99
CCCCOCCCNc1ncnc2c1[nH]c1ccccc12	1	62	109	i	0.83	-0.7	141
COCCCNC(=O)Cn1c(=O)n(Cc2ccc(C(=O)NCCc3ccc(OC)c(OC)c3)cc2)c(=O)c2ccccc21	-1	.	.	i	0.97	.	99
Cn1nc(C(C)(C)C)c([N+](=O)[O-])c1C(N)=O	.	.	.	i	0.97	.	99
CCCCNC(=O)CCn1c(=O)c2ccccc2n(CC(=O)Nc2ccccc2OCC)c1=O	-12	.	.	i	0.95	-0.7	105
CCOC(=O)c1c(C)n(C)c2ccc(OC(C)=O)cc12	-6	-14	123	i	0.99	-0.3	109
COc1ccc(Nc2nc(N)nc(C(F)(F)F)n2)c(OC)c1	-19	1	52	i	0.79	0.5	185
Cc1ccccc1N1CCN(S(=O)(=O)c2ccc3oc(=O)ccc3c2)CC1	-3	19	56	i	1	-1.7	109
COc1cc(NS(=O)(=O)c2ccc(NC(=S)NC(=O)CC(C)C)cc2)nc(OC)n1	-1	-406	45	i	0.99	-2.2	101
CC(=O)Nc1ccc2c(c1)OCO2	0	36	176	i	1	.	128
CCC(=O)N(Cc1cc(=O)[nH]c2ccccc12)c1ccc(C)cc1	.	.	.	i	0.88	.	95
COc1ccc(Nc2nc(Nc3ccc(OC)cc3OC)nc(N3CCN(C)CC3)n2)c(OC)c1	2	-317	84	i	0.63	-0.7	104
NC(=O)c1ccc(NC(=O)COC(=O)c2cccc(Oc3ccccc3)c2)cc1	-6	10	109	i	1	0.7	68
O=C(C1CC(c2ccc(F)cc2)=NO1)N1CCN(Cc2ccccc2)CC1 (stereo not drawn)	-9	.	.	i	0.86	-0.8	97
COc1ccc(Nc2nc(NCC3CCCO3)c3ccccc3n2)c(OC)c1 (stereo not drawn)	-12	.	.	i	0.97	.	98
Cc1sc2nc(CN3CCCCC3)nc(N3CCN(C(=O)c4ccco4)CC3)c2c1C	-6	-94	84	i	0.98	.	101
CC[C@@H](C)C(N)c1cn([C@@H](CCC(=O)O)C(=O)N2CCNCC2)nn1 (stereo partly drawn)	6	.	.	i	1.1	.	103
COc1ccc(-c2nnn(CC(=O)N3CCN(c4ccc(F)cc4)CC3)n2)cc1	.	.	.	i	0.89	.	106
COC(=O)CSc1nnc(-c2sc3cc(OC)ccc3c2Cl)n1C	0	-254	71	i	0.93	-0.2	108
SMILES	PKD1 kinase inh	INS promoter inh	INS promoter inh cell count	HSV augment	HSV augment primary fold	GALR2 agonist	RGS16-Gao
CCCCCCOc1ccc(N2C(=O)CC(NCc3ccc(S(N)(=O)=O)cc3)C2=O)cc1 (stereo not drawn)	.	.	.	i	1	.	92
Fc1ccc(NC(=S)Nc2ccc(Cl)cc2Cl)cc1	2	50	110	i	0.96	.	108
Cc1nnc(-c2ccc(Cl)cc2)[nH]c1=O	9	.	.	i	1	.	105
O=C1NC(=O)/C(=C/c2cccc([N+](=O)[O-])c2)N1	.	.	.	i	1	.	107
O=C(Nc1cccnc1)C1CC(c2ccccc2O)=NO1 (stereo not drawn)	-4	14	186	.	.	-1.6	95
NC(=O)CSc1nnc(CNc2ccc(F)cc2)n1CC1CCCO1 (stereo not drawn)	-15	55	82	i	1	-0.5	97
NC(=O)c1nnsc1-c1ccc(-c2snnc2C(N)=O)cc1	.	.	.	i	0.97	.	103
O=C(CNS(=O)(=O)c1ccc(Br)s1)N1CCN(C(=O)c2ccco2)CC1	-6	-4	104	i	1.1	-0.8	96
CSc1ccc(S(=O)(=O)Nc2ccc(S(=O)(=O)Nc3ccc(C)cc3)cc2)cc1	6	-40	107	i	0.59	-0.9	91

High-throughput results (PubChem)
